Bioassay records deposited in PubChem by National Center for Advancing Translational Sciences (NCATS).
A647 autofl – compound fluoresces in the A647 spectral region. Compound fluorescence, A647 channel (570/671 nm), Tris buffer. max dye-equivalent concentration, M. 59,000 tested, under 10 active. AID 592; active means above 1 µM dye equivalent; inconclusive means 0.1 to 1 µM; inactive means 0.1 µM or less;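 also: values scaled relative to a standard on each plate; highest value over a series up to 38 µM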
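Spectral profiling of library compounds in pH 8.0 Tris: 15 min room-temperature incubation, single ex/em pair (570/671 nm), response normalized to Alexa 647 equivalents.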
TSHR ag – activates the human thyroid stimulating hormone receptor; P16473; HEK293-CNG-TSHR cells (CNG channel as cAMP sensor), membrane potential dye, cAMP; Potency, µM (titrated, usually from 57.1 µM), for the others: at the highest dose activation, hits mostly activators; 73,000 compounds, 0.48% hits; AID 926; active = well fitted activation curve of enough size with the parental cells flat; inconclusive = any curve in the parental cells; inactive = parental cells flat and receptor cells flat or falling; also: potency is read from the fitted curve at half-maximal effect; % of control where 0% means no effect; weak receptor curves with flat parental cells got no call and are not listed
Target sequence (P16473 whole entry, looked up): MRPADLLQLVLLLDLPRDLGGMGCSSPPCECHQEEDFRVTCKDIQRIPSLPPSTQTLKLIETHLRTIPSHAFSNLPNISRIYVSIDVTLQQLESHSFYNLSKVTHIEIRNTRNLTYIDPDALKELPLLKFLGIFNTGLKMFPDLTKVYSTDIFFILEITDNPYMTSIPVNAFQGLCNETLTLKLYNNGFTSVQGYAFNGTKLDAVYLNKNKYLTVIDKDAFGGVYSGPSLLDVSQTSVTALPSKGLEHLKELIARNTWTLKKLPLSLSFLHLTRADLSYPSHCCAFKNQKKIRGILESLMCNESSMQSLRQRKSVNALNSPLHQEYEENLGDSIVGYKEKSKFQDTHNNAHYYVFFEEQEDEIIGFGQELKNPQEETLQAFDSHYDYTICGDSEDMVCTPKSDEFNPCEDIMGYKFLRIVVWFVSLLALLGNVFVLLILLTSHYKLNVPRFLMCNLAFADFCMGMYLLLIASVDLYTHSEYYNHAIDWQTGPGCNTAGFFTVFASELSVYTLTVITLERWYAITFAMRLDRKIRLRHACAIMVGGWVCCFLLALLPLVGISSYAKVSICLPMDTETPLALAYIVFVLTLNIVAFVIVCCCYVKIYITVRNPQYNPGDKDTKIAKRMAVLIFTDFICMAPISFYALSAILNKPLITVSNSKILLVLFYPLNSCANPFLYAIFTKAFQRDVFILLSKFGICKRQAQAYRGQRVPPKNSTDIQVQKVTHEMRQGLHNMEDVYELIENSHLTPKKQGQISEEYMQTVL
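HEK 293 cells stably expressing TSHR and a cAMP-gated CNG channel; parental CNG-only cells as counterscreen. Cells preloaded 60 min with membrane potential dye plus 100 uM RO 20-1724, then compound 30 min; fluorescence read at 590 nm.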
A488 autofl – A488 region autofluorescence; 59,000 compounds, 0.1% hits; max dye equivalency, M; compound autofluorescence, A488 spectral region, dye equivalency; stronger effect = higher value; active = above 10 nM dye equivalent; inconclusive = 1 to 10 nM; inactive = 1 nM or less; about half of its hits are not listed in these tables;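 also: highest value over a series up to 38 µM; compound alone in buffer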
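Intrinsic compound fluorescence is measured in 100 mM Tris buffer at pH 8.0 following 15 min incubation at room temperature. Intensities at 480 nm excitation/540 nm emission are calibrated to an on-plate A488 concentration series, giving dye-equivalent concentrations.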
Resorufin autofl – compound fluoresces in the resorufin spectral region; AID 588; 59,000 compounds, 0.04% hits; Compound fluorescence, resorufin region 547/598 nm, buffer; stronger effect = higher value; max dye-equivalent concentration, M; active = above 10 nM dye equivalent; inconclusive = 1 to 10 nM; inactive = 1 nM or less; a few of its hits are not listed in these tables; also: highest value over a series up to 38 µM
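Tris 100 mM pH 8.0; compound added, 15 min RT; CCD imager read, ex 547 nm/em 598 nm; signal normalized to resorufin standard curve (six concentrations per plate) as dye-equivalent concentration.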
AID923 – qHTS Assay for Allosteric/Competitive Inhibitors of Caspase-1: Spectroscopic Profiling in AFC Spectral Region | Potency, µM (titrated, usually from 57.5 µM), for the others: top-dose fluorescence increase, hits mostly activators | compound fluorescence, AFC spectral region (405/520 nm); almost no hit is shown here | AID 923, 2007 | 75,000 compounds, 1.1% hits; active = well fitted activation curve with a large enough effect; inconclusive = small, poorly fitted or top-dose-only effect;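 also: potency is read from the fitted curve at half-maximal effect; 0% is about no effect; scaled to a free AFC standard on each plate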
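Compound autofluorescence profiled at 405 nm ex/520 nm em during kinetic caspase 1 run (50 nM enzyme, 5 uM Ac-WEHD-AFC, HEPES pH 7.5, 10 mM DTT). Titration up to 57 uM; baseline from regression intercept, normalized to AFC standard curve.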
Active calls of the source: *; i = inactive; ? = inconclusive; nt = not tested or not shown; & = joins results of further samples; [ ] = remark or other dose.

SMILES | A647 autofl | TSHR ag | A488 autofl | Resorufin autofl | AID923
COc1cc(NC(=O)CCc2ccccc2)nc(OC)n1 | 1.5e-09 | -13% | i | i | -1.5%
OCCN(CCO)c1ncnc2nc[nH]c12 | 1.2e-08 | -4%[11.4 µM] | i | i | 0.8%[11.5 µM]
O=C(CCn1c(=S)[nH]c2ccccc2c1=O)NCCCN1CCCC1=O | 6.4e-09 | -3% | i | i | -2.6%
COc1cccc(CNc2nn[nH]n2)c1OC | 3.9e-08 | 22% | i | i | -0.2%
CC(=O)c1ccc(NC2OC(CO)C(O)C(O)C2O)cc1 (centres undefined) | 3e-08 | ? | i | i | 0.2%
CCCCNC(=O)CCCCCNS(=O)(=O)c1ccc(OC)cc1 | 1.1e-09 | 12% | i | i | -0.1%
CN1CCN(c2nc3c(c(=O)[nH]c(=O)n3C)n2Cc2cccc3ccccc23)CC1 | 5.7e-09 | ? | i | i | -0.8%
Cc1ccc(C2CC(=O)NC(SCc3ccccc3)=C2C#N)o1 (centres undefined) | nt | ? | nt | nt | 1.9%
CCOC(=O)C1CCCN(S(=O)(=O)Cc2ccccc2)C1 (centres undefined) | 1e-09 | 5% | i | i | 2.4%
CCCCc1c(O)nc(SCC(=O)N2CCCCC2)n(-c2ccccc2C)c1=O | 2.2e-08 | 1% | i | i | 0.7%
CCCCN1C(=O)c2ccccc2C1C(=O)NC1CCCC1 (centres undefined) | 2.5e-09 | 18% | i | i | -0.2%
Cc1ccc(C)c(NC(=O)CSc2nc3c(c(=O)n2C)SC(C)C3)c1 (centres undefined) | nt | 2% | nt | nt | -2.8%
CCOC(=O)CSc1nnc2n1C(C)(C)Cc1ccccc1-2 | 5.5e-08 | -3% | i | i | -1.6%
N#Cc1nc(-c2ccccc2F)oc1NC1CCCCC1 | nt | ? | nt | nt | -0.9%
Cc1cccc(C(=O)NCc2nnc(SCC(=O)N3CCN(c4ccccc4)CC3)n2C)c1 | 1e-09 | -5% | i | i | 0.0%
Cc1cccnc1NCc1ccc(O)c2ncccc12 | 1.8e-09 | 0% | i | i | -1.0%
O=C1OC(c2ccc(Br)cc2)=N/C1=C\N1CCCCC1 | 1.5e-08 | -3% | i | i | -0.3%
COC(=O)C1=C(CSc2nc3ccccc3o2)NC(=O)NC1c1cc(C)ccc1C (centres undefined) | 1e-09 | nt | i | i | -3.0%
Cc1sc(NC(=O)c2ccc(Cl)s2)c(C(N)=O)c1C | 1e-09 | -15% | i | i | 17%
O=C(Nc1nccs1)c1cccc(S(=O)(=O)N2CCOCC2)c1 | nt | 1%[11.4 µM] | nt | nt | -1.6%
COc1ccc(-c2nnn(CC(=O)N(CC(=O)NC3CCCC3)c3cccc(C)c3)n2)cc1OC | 1e-09 | 2% | i | i | -1.9%
O=C(NCCCN1CCN(CCCNC(=O)c2ccccc2F)CC1)c1ccccc1F | 1e-09 | 7% | i | i | 1.5%
CCN(CC)S(=O)(=O)c1ccc(NC(=O)c2c(-c3ccccc3)noc2C)cc1 | nt | ? | nt | nt | -1.4%
N#Cc1nc(-c2ccc(Cl)cc2)oc1NCc1cccc2c1OCO2 | 1.6e-08 | nt | i | i | 0.5%
CCSc1nc2c(c(=O)n1Cc1ccccc1)SC(C)C2 (centres undefined) | 3.4e-08 | ? | i | i | -0.4%
COC(=O)c1sc(NC(=O)c2cnccn2)c(C(=O)OC)c1C | 7.4e-09 | 4% | i | i | 1.4%
CCN1C(=O)C2(Nc3ccccc3-c3nc4ccccc4n32)c2cc(OC)ccc21 (centres undefined) | 1e-09 | ? | i | i | 8.6%
CCN1CCN(CC(=O)Nc2ccc3c(c2)OCCO3)C(=O)C1=O | nt | 0% | nt | nt | -0.7%
Cn1c(=O)c(-c2ccccc2)nc2cncnc21 | 1e-09 | ? | i | i | 4.7%
COc1ccccc1NC(=O)CSCC(N)=O | 2.4e-09 | 3% | i | i | 0.4%
O=S(=O)(NCc1ccco1)c1cccc(S(=O)(=O)N2CCCCC2)c1 | 1e-09 | -4% | i | i | -2.5%
COc1ccccc1NC(=O)N1CCCC(C(=O)Nc2cccc(C)c2C)C1 (centres undefined) | 4.6e-08 | 2% | i | i | 1.6%
Nc1ncc(Br)cc1S(=O)(=O)NCCC(=O)N1CCN(c2ncccn2)CC1 | 1e-09 | -2% | i | i | 0.7%
c1cnc2c(OCc3nc4ccccc4[nH]3)cccc2c1 | 4.8e-08 | -4% | i | i | -0.2%
COc1cccc(C2NC(C)(C(=O)O)C3C(=O)N(C(C)C)C(=O)C23)c1O (centres undefined) | nt | ? | nt | nt | 3.7%
COc1ccc(CCNc2nc3c(c(=O)n(C)c(=O)n3C)n2C)cc1OC | 4.2e-08 | nt | i | i | nt
Cc1cc(C(=O)N2CCN(Cc3ccc4c(c3)OCO4)CC2)on1 | nt | 0% | nt | nt | 3.2%
COc1ccccc1N1CCN(C/C(C)=C/c2ccccc2)CC1 | nt | 4%[11.4 µM] | nt | nt | -1.3%
O=C(c1csnn1)N1CCC2(CC1)CCN(c1ccccc1)CC2 | 5.9e-09 | -3% | i | i | 0.9%
CCNCCNC(=O)c1c(O)c2c([nH]c1=O)CCCC2 | 1.7e-08 | 15% | i | i | 0.1%
Cc1ccc(OCC(O)CN2C(=O)NC(C)(C)C2=O)cc1C (centres undefined) | nt | 13% | nt | nt | 0.0%
CCOC(=O)CC(=O)CSc1ncnc2c1cnn2-c1ccccc1 | 1.9e-09 | 7% | i | i | 1.0%
CC1=NCCN1S(=O)(=O)c1cc(Cl)ccc1Cl | 3.8e-08 | 0% | i | i | -0.9%
CC(=O)N1CCN(c2ccc(Oc3ncnc4sccc34)cc2)CC1 | 9.1e-09 | ? | i | i | -1.6%
CC(=O)OCC1OC(C#Cc2ccccc2)C=CC1O (centres undefined) | nt | -1%[11.4 µM] | nt | nt | 2.7%[11.5 µM]
O=C(CN(C(=O)CSc1nnc(COc2ccccc2)o1)c1ccc(F)cc1)NC1CCCC1 | 3.3e-09 | 2% | i | i | -1.7%
Cc1ccc2oc(=O)cc(CN3CCOCC3)c2c1 | 1e-09 | 7% | i | i | 1.1%
Cc1ccccc1-c1nc(CS(=O)CC(=O)NCCN2CCOCC2)c(C)o1 (centres undefined) | nt | -1% | nt | nt | 3.0%
Cc1nc2c(OCc3ccccc3)cccn2c1CC#N | 4.3e-08 | -10%&4% | i | i | -2.7%
COC(=O)CCC(=O)c1oc2ccccc2c1N | 1e-09 | 28% | i | i | -2.7%
CCOC(=O)C(NCc1ccccc1OC)(NC(C)=O)C(F)(F)F (centres undefined) | 1.8e-09 | -6% | i | i | 2.4%
CCN(CC(=O)NCc1cccs1)c1nnnn1-c1ccccc1 | 1e-09 | -2% | i | i | 1.5%
CC(C)CCn1cnc2c(cnn2-c2ccc(F)cc2)c1=O | 1e-09 | ? | i | i | 0.4%
Cc1cc(C)n2ncc(C(=O)Nc3ccc4c(c3)OCO4)c2n1 | 1e-09 | -6% | i | i | 0.6%
Cn1c(C(=O)NCCCN2CCOCC2)cc2c(=O)n(C)c3ccccc3c21 | nt | 8% | nt | nt | -1.3%
COc1ccc(N(CC(=O)Nc2cccc(C)c2)S(=O)(=O)c2c(C)n[nH]c2C)cc1 | 2.2e-08 | -6% | i | i | -0.1%
O=C1C2ON(c3ccccc3)C(c3ccncc3)C2C(=O)N1c1ccc(N2CCOCC2)cc1 (centres undefined) | nt | 1% | nt | nt | -2.5%
COC(=O)c1ccc(CSc2nnc(CNC(=O)c3ccccc3F)o2)o1 | 4.2e-09 | 0%[11.4 µM] | i | i | 1.3%
O=C(CSc1nnc(-c2ccncc2)n1C1CCCCC1)Nc1ccccc1 | 6.8e-09 | ? | i | i | 0.0%
CCN(CC)CCCN1C(=O)C(=O)/C(=C(/O)c2ccc3c(c2)OCCO3)C1c1ccc(C)o1 (centres undefined) | 1.9e-09 | 3% | i | i | 3.1%

Molecules listed so far containing a thiophene ring, fused or not (four):
SMILES | A647 autofl | TSHR ag | A488 autofl | Resorufin autofl | AID923
Cc1sc(NC(=O)c2ccc(Cl)s2)c(C(N)=O)c1C | 1e-09 | -15% | i | i | 17%
COC(=O)c1sc(NC(=O)c2cnccn2)c(C(=O)OC)c1C | 7.4e-09 | 4% | i | i | 1.4%
CC(=O)N1CCN(c2ccc(Oc3ncnc4sccc34)cc2)CC1 | 9.1e-09 | ? | i | i | -1.6%
CCN(CC(=O)NCc1cccs1)c1nnnn1-c1ccccc1 | 1e-09 | -2% | i | i | 1.5%

(cont.)
SMILES | A647 autofl | TSHR ag | A488 autofl | Resorufin autofl | AID923
Cc1ccc(NC(=O)C2CCN(S(=O)(=O)c3cccc4nonc34)CC2)nc1 | 1e-09 | ? | i | i | 1.5%
CCOc1ccc2[nH]c(=O)c(CN(Cc3cccnc3)C(=O)Nc3ccccc3OC)cc2c1 | 1.3e-08 | 8% | i | i | -1.7%
CC(=O)c1cc(F)c(N2CCN(C(=O)c3ccco3)CC2)cc1C | 1.9e-09 | 16% | i | i | 0.2%
COc1cccc(CNC(=O)CCS(=O)(=O)c2cccc3nonc23)c1 | 2.8e-08 | -1% | i | i | 0.3%
Cc1ccc(C)c(S(=O)(=O)NCc2cccnc2)c1 | 1e-09 | nt | i | i | 0.4%
CCCCN(CC)CCCNC(=O)CC1Oc2ccccc2NC1=O (centres undefined) | 4.2e-09 | -2%[11.4 µM] | i | i | -0.7%
COc1cccc(NC(=O)c2oc3ccccc3c2NC(=O)C(C)(C)C)c1 | 2.4e-08 | ? | i | i | 1.5%
O=[N+]([O-])c1cc(Cl)cc2c1nc(NCCO)c1ccccc12 | 1e-09 | 0%[11.4 µM] | i | i | -4.5%[11.5 µM]
CC(=O)N1CCN(CCN=CC2=C(O)CC(C)(C)CC2=O)CC1 | 1.3e-08 | 0% | i | i | 0.7%
CN(C)C(=O)CN(c1ccc(F)c(Cl)c1)S(C)(=O)=O | 3e-08 | 4% | i | i | -0.7%
O=C(c1ccc(S(=O)(=O)N2CCCCC2)cc1)N1CCN(c2ccccc2)CC1 | 1.7e-08 | 3% | i | i | 0.8%
CCCC[C@@H]1C[C@H]1C(NC(=O)c1ccccc1)c1ccc(Cl)cc1 (some centres undefined) | nt | ? | nt | nt | -5.3%
O=C1CC(N2CCOCC2)C(=O)N1c1ccc2c(c1)OCO2 (centres undefined) | 1e-09 | -13% | i | i | 1.0%
CCn1c2ccccc2c2cc(NC(=O)COC(=O)Cc3cn4ccsc4n3)ccc21 | 1e-09 | -6% | i | i | -0.4%
CC(=O)NCCNc1nc(-c2ccc3c(c2)OCO3)nc2ccccc12 | 2.7e-09 | -3% | i | i | 2.3%
COc1ccccc1NC(=O)c1nnn(Cc2ccccc2)c1NC(C)=O | 1e-09 | -2%[11.4 µM] | i | i | -1.2%
Cc1ccc(SCCC(=O)N2CCOCC2)cc1 | 1e-09 | 0% | i | i | 1.8%
N#CC1=C2Sc3ccccc3N2CCCC1=O | 8.3e-09 | 1% | i | i | -1.9%
C[C@@H]1O[C@@H](n2cc(F)c(=O)[nH]c2=O)[C@H](O)[C@@H]1O | 2.2e-08 | nt | i | i | 0.6%
CC1CCCN(CC(=O)Nc2ccc(S(=O)(=O)NC3CCCCC3)cc2)C1 (centres undefined) | 1.1e-08 | 13% | i | i | 1.0%
COc1ccc(C2=NCC(CSc3nccc(=O)[nH]3)S2)cc1 (centres undefined) | 3.3e-08 | 0% | i | i | -0.4%
COc1cc(C2NC(=O)NC(C)=C2C(=O)Nc2cccc(C)c2C)cc(OC)c1OC (centres undefined) | 3.3e-09 | nt | i | i | nt
Cc1cc(NCCN2CCOCC2)n2nc(C)c(-c3ccccc3)c2n1 | 1e-09 | 4% | i | i | 1.4%

The list is partial; rates above refer to the full screens.
